Bioassay records deposited in PubChem BioAssay by Broad Institute.
Ecoli rRNA inh = inhibitors of bacterial rRNA selective over humanized ribosomes. E. coli WT GFP vs humanized-ribosome RFP mutants, fluorescence, 24 h; active compounds read low; DMSO median 0, no signal -100. GFP signal change (wild-type ribosome), % (test concentration not listed). 1.6% of 350,000 active;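 active = significant combined selectivity score with lowered wild-type GFP, culture density cut under 30%, mutant RFP and density less affected; inactive = any of these conditions unmet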; note: one replicate is shown; some compounds called inactive have numbers as strong as hits
FGF22 binding = FGF22 (human) thermal shift binding. calls only at 9.99 µM. 1.5% of 340,000 active. AID 651658. Q9HCT0. recombinant FGF22 thermal shift, SYPRO orange fluorescence; percent of sucrose octasulfate shift, DMSO zero;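 active = melting point raised past a set limit in the mean and every replicate; three in four hits are not shown here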
Target sequence (Q9HCT0 whole entry, looked up): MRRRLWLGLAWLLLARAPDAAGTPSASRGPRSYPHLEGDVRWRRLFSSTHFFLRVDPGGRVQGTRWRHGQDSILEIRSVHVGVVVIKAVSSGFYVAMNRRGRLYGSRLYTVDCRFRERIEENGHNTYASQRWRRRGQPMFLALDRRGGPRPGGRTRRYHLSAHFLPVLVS
AF4-AF9 inh = inhibitors of human MLL-AF4/AF9 interaction; P42568; AlphaScreen, biotin-AF4 peptide binding to FLAG-AF9; 0.47% of 350,000 active; AID 651704; inhibition, % at 10 µM;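 active = every replicate reaching a set inhibition limit, whatever the replicate mean, cut at about 25% in these data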;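 note: 0% = plate neutral control median and 100% = total signal loss; the record names both 10 and 1 µM as test concentration; the first replicate is given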
Target sequence (P42568 whole entry, looked up): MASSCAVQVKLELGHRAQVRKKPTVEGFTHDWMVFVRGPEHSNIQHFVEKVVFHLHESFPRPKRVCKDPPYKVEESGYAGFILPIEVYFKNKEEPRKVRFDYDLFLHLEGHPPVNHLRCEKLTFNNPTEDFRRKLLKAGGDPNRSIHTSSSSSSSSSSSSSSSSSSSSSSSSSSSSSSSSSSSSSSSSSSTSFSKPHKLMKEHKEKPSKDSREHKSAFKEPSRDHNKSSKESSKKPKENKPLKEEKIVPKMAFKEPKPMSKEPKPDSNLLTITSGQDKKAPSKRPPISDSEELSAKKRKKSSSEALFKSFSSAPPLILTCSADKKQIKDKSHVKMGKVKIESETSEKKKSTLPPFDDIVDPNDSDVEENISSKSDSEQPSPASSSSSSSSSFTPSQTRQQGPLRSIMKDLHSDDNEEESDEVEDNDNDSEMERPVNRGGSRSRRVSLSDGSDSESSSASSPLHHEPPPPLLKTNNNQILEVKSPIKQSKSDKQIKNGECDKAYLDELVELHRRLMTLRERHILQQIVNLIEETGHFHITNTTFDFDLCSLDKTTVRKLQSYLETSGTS
Ecoli rRNA inh OD600 = further read-out of Ecoli rRNA inh, marked with its call; OD600 change, %; measured here: OD600 growth;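 optical density of the mix in the first replicate; 0 = DMSO median and -100 = no signal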
Ecoli rRNA inh RFP = also measured in Ecoli rRNA inh; calls as there; RFP signal change, %; measured here: RFP humanized mutant strains;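 first replicate; 0 = DMSO median and -100 = no signal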
Numbers without * were called inactive; i = inactive; + = active, no number. These rows are one share of the data. The share of hits here may be higher or lower than overall.

Results follow in this order: Ecoli rRNA inh, Ecoli rRNA inh OD600, Ecoli rRNA inh RFP, FGF22 binding, AF4-AF9 inh
C/C=C/c1ccc([C@H]2[C@H](CO)N(S(=O)(=O)Cc3ccccc3)C23CN(C(=O)C2CCCC2)C3)cc1
 : -4.4, -5.2, 4.2, i, 3.5
COc1ccc(S(=O)(=O)Nc2ccc3c(c2)CC(=O)N([C@H](C)CO)C[C@@H](C)[C@@H](CN(C)Cc2ccc4c(c2)OCO4)O3)cc1
 : -2.2, -10.7, 2.2, i, -0.3
CCOC(=O)[C@]12CCC=C1N(Cc1ccco1)C(=O)[C@H](CC(=O)NCc1cccc(C(F)(F)F)c1)C2
 : 6.2, 4.5, 9.9, i, -2.8
CCc1nc2ccc(C(=O)NCCN3CCNC3=O)cn2c1N(CC)Cc1cccc(Br)c1
 : -15.3, -22.4, -3.7, i, 2.9
O=C(Cc1ccccn1)NCC[C@H]1CC[C@H](NC(=O)Nc2ccc(C(F)(F)F)cc2)[C@H](CO)O1
 : 1.1, -0.9, 5.0, i, 3.6
C=C1[C@@H](CCO)N(S(=O)C(C)(C)C)C[C@@H]1C (some centres undefined)
 : 17.9, 15.0, 3.5, i, -2.0
CCC(=O)N(C)C[C@H]1Oc2cc(-c3ccccc3C)ccc2S(=O)(=O)N([C@@H](C)CO)C[C@@H]1C
 : -11.0, -16.9, 0.1, i, 3.7
CN(Cc1cnn(-c2ccccc2)c1)C(=O)c1cccc(S(=O)(=O)N(C)c2ccccc2)c1
 : -9.9, -26.4, 0.6, i, -5.4
O=C(NCC1CCCO1)c1ccc(Cl)c(NS(=O)(=O)c2ccc(F)cc2)c1 (centres undefined)
 : 3.2, 1.9, -2.2, i, 1.4
CC=Cc1ccc2n(c1=O)C[C@H]1[C@H](CO)[C@@H](C(=O)NC3CCCC3)[C@@H]2N1Cc1ccncc1 (mixture of isomers)
 : 4.1, 8.4, 1.7, i, -22.0
COc1cccc(-c2ccc([C@@H]3[C@H](CO)N4CCCCN(C(=O)c5ccc6c(c5)OCO6)C[C@@H]34)cc2)c1
 : -56.2, -78.3, -8.8, i, 10.0
O=C1NC[C@@H](CCCCN2C[C@H](Cc3ccc(O)cc3)N(CCc3ccc(O)cc3)C(=O)C2=O)N(CCc2ccc(O)cc2)C1=O
 : 13.2, 19.8, -0.3, i, 9.5
CC(CN1CCCCC1)NC(=O)c1scnc1-c1ccccc1 (centres undefined)
 : 1.9, 5.1, -3.8, i, -1.2
c1ccc2c(-c3cnc4cccnn34)cncc2c1
 : 4.3, 3.7, -3.0, i, 4.4
COC(=O)C[C@@H]1CC[C@@H](NS(=O)(=O)c2ccccc2F)[C@H](CO)O1
 : 0.2, 5.3, -0.3, i, 0.1
COc1ccc(NC(=O)N(C)C[C@@H]2Oc3ccc(NC(=O)Nc4cccc5ccccc45)cc3CC(=O)N([C@@H](C)CO)C[C@H]2C)cc1
 : -4.3, 4.8, -3.2, i, -2.0
CNC[C@@H]1OCCCC[C@@H](C)Oc2ccc(NS(=O)(=O)c3ccccc3)cc2C(=O)N([C@H](C)CO)C[C@@H]1C
 : 2.2, 6.8, 0.7, i, -14.0
C/C=C/c1cnc2c(c1)C(=O)N([C@@H](C)CO)C[C@@H](C)[C@H](CN(C)Cc1ccccc1)O2
 : 8.2, 5.4, -6.2, i, -3.3
O=S(=O)(Cc1ccccc1)NCC[C@H]1CC[C@H](NS(=O)(=O)c2ccc(F)cc2)[C@@H](CO)O1
 : -3.1, -7.0, 3.7, i, -0.1
CCC(=O)N1[C@H](CO)[C@@H](c2ccccc2)C12CN(Cc1nccs1)C2
 : 3.1, 15.3, 2.2, i, -1.9
CSc1ccc(CN2C(=O)C(C)Sc3ccc(C(C)=O)cc32)cc1 (centres undefined)
 : -2.5, -13.9, -18.4, i, 0.1
C[C@@H]1CN([C@H](C)CO)C(=O)Cc2cc(NC(=O)Cn3cnnn3)ccc2O[C@@H]1CN(C)CC1CCCCC1
 : 2.0, 4.3, -0.3, i, 7.7
CCCNC(=O)N(C)C[C@H]1Oc2ncc(C#CCc3ccccc3)cc2C(=O)N([C@@H](C)CO)C[C@H]1C
 : 5.6, 10.2, 0.4, i, 0.9
COc1ccccc1CNC(=O)C(=O)NCC1CCCN1S(=O)(=O)c1cc(C)ccc1C (centres undefined)
 : 10.8, -10.2, 6.5, i, 3.3
CC(C)C#Cc1ccc([C@@H]2[C@@H](CO)N3C(=O)CN(C(=O)C4CCCCC4)C[C@@H]23)cc1
 : -6.6, -44.8, 29.4, +, -10.0
COCC(=O)Nc1ccc2c(c1)C(=O)N(C)[C@@H]1CC[C@H](CC(=O)NCC3CCCCC3)O[C@@H]1CO2
 : 0.2, 2.1, -0.9, i, 0.6
COc1ccc(CN(C)C[C@H]2Oc3ccc(NS(=O)(=O)c4cn(C)cn4)cc3CC(=O)N([C@H](C)CO)C[C@@H]2C)cc1
 : 3.7, 8.8, -0.4, i, 1.0
CCc1nc2c(OCc3cc(Cl)cc(Cl)c3)cccn2c1N(C)C(=O)c1ccc(C)cc1
 : 2.1, 6.7, 2.8, i, 0.5
C[C@@H]1CCCCO[C@@H](CN(C)C)[C@H](C)CN([C@@H](C)CO)C(=O)c2cc(NC(=O)Nc3ccc(C(F)(F)F)cc3)ccc2O1
 : -33.7, -65.5, 24.8, i, 0.9
CNc1ncnc2c1ncn2[C@H]1CN(CCN2CCOCC2)C[C@@H](CO)O1
 : 13.1, 30.2, 0.9, i, -2.0

Reprinted from the part before: 3 compounds; new compounds follow.
Results follow in this order: Ecoli rRNA inh, Ecoli rRNA inh OD600, Ecoli rRNA inh RFP, FGF22 binding, AF4-AF9 inh
CCc1nc2c(OCc3cc(Cl)cc(Cl)c3)cccn2c1N(C)C(=O)c1ccc(C)cc1
 : 2.1, 6.7, 2.8, i, 0.5
C[C@@H]1CCCCO[C@@H](CN(C)C)[C@H](C)CN([C@@H](C)CO)C(=O)c2cc(NC(=O)Nc3ccc(C(F)(F)F)cc3)ccc2O1
 : -33.7, -65.5, 24.8, i, 0.9
CNc1ncnc2c1ncn2[C@H]1CN(CCN2CCOCC2)C[C@@H](CO)O1
 : 13.1, 30.2, 0.9, i, -2.0
COCn1ccnc1C(=O)c1ccco1
 : 3.7, 14.9, -0.3, i, -3.1
Cc1cccc(S(=O)(=O)N2CCCCN3[C@@H](CO)[C@@H](c4ccc(-c5ccncc5)cc4)[C@@H]3C2)c1
 : 0.9, -31.2, 8.6, i, 8.5
C[C@@H](NC(=O)C[C@@H]1CC[C@@H]2[C@H](COC[C@H](O)CN2C(=O)Nc2ccccc2)O1)c1ccccc1
 : -1.5, 3.2, -1.0, i, -1.1
CCCC(=O)N1CC2(C1)CN(C(C)=O)[C@@H](CO)c1c2c2ccc(OC)cc2n1C
 : 3.7, 3.6, -2.1, i, -2.0
C[C@@H]1CN([C@H](C)CO)C(=O)Cc2cc(NS(=O)(=O)c3ccc(Cl)cc3)ccc2O[C@@H]1CN(C)Cc1ccc(Oc2ccccc2)cc1
 : 3.1, 1.3, -1.6, i, 1.0
C[C@@H]1CCCCO[C@H](CN(C)Cc2ccccc2)[C@@H](C)CN([C@@H](C)CO)C(=O)c2cc(NS(=O)(=O)c3cccs3)ccc2O1
 : 2.1, -1.0, 2.6, i, 3.2
CCCC(=O)Nc1ccc2c(c1)OC[C@H](C)N(Cc1cccc(F)c1)C[C@@H](C)[C@H](OC)CN(C)C2=O
 : -8.4, -9.9, 4.7, i, 2.4
Cc1ccc(SCc2c(C(=O)N/N=C/c3ccc(C)o3)nnn2-c2nonc2N)cc1
 : -27.9, -37.7, -7.1, i, -4.8
CNC[C@H]1OCCCC[C@@H](C)Oc2ccc(NS(=O)(=O)c3ccc(C)cc3)cc2C(=O)N([C@@H](C)CO)C[C@H]1C
 : 0.7, 0.6, -0.4, i, 6.0
O=C(C[C@@H]1CC[C@@H](NS(=O)(=O)c2ccccc2)[C@H](CO)O1)NCCN1CCCCC1
 : 1.7, 2.7, 1.2, i, 0.3
C[C@H](CO)N1C[C@H](C)[C@H](CN(C)S(C)(=O)=O)Oc2ncc(C#Cc3ccccc3)cc2C1=O
 : -1.2, 4.1, -3.9, i, -3.6
Cc1nn(C)cc1NC(=O)C[C@H]1CC[C@@H]2[C@H](COc3ccc(NC(=O)c4cccc(F)c4)cc3C(=O)N2C)O1
 : 1.6, 14.2, -0.4, i, -17.4
C[C@H](O)C#Cc1cnc2c(c1)C(=O)N([C@H](C)CO)C[C@H](C)[C@@H](CN(C)C(=O)Cc1ccccn1)O2
 : -1.4, 6.0, -0.6, i, -4.1
CSc1ccc(OC2(C)CCN(Cc3ccc(OC(C)C)cc3)C2)cc1 (centres undefined)
 : -33.9, -67.6, -9.7, i, 3.3
CCCC(=O)N1CC2(CN(S(=O)(=O)CC)C2)c2c(n(C)c3cc(OC)ccc23)[C@H]1CO
 : -3.0, 9.0, -1.8, i, 3.8
CCN(CC)c1ccc(/C=N/NC(=O)c2nnn(-c3nonc3N)c2CN(C)C2CCCCC2)cc1
 : 11.8, 19.4, -0.1, i, -7.7
C[C@@H]1CN([C@@H](C)CO)C(=O)Cc2cc(NS(=O)(=O)c3ccc(F)cc3)ccc2O[C@H]1CN(C)C(=O)NC1CCCCC1
 : 1.8, 0.4, -3.7, i, -0.1
CCC(=O)N(C)C[C@@H]1Oc2cc(-c3cncnc3)ccc2S(=O)(=O)N([C@@H](C)CO)C[C@@H]1C
 : 10.8, 6.0, -3.4, i, -1.8
C[C@@H]1CN([C@@H](C)CO)C(=O)c2cccc(N(C)C)c2O[C@@H]1CN(C)Cc1ccc(Cl)c(Cl)c1
 : -6.3, -0.9, 3.7, i, 8.2
CC1(C(=O)NCc2cccc3ccccc23)CCN1Cc1ccccc1OC(F)F (centres undefined)
 : -42.9, -46.5, 7.2, i, -4.1
CNC[C@@H]1OCCCC[C@H](C)Oc2ccc(NC(=O)Nc3c(C)noc3C)cc2C(=O)N([C@@H](C)CO)C[C@@H]1C
 : 0.4, -3.1, -3.9, i, -0.4
CNC(=O)C1CN(C(=O)c2cccc(S(=O)(=O)N3CCc4ccccc43)c2)c2ccccc2O1 (centres undefined)
 : -10.1, -16.4, 13.5, i, -1.1
CC(C)C#Cc1ccc([C@@H]2[C@@H](C#N)N(C(=O)C3CCC3)[C@@H]2CO)cc1
 : 3.8, 4.2, 0.2, i, -0.8
CC=Cc1ccc2n(c1=O)C[C@@H]1[C@@H](CO)[C@H](C(=O)NCc3ccccc3)[C@H]2N1CC (mixture of isomers)
 : -2.6, 2.0, 0.8, i, 0.4
COc1ccc(NC(=O)Nc2ccc3c(c2)C(=O)N([C@@H](C)CO)C[C@H](C)[C@@H](CN(C)Cc2ccc(C(F)(F)F)cc2)OCCCC[C@H](C)O3)cc1
 : -1.4, -0.2, 6.4, i, -1.4
COC(=O)[C@@]12C[C@@H](CC(=O)N3CCCC3)C(=O)N(Cc3ccc4c(c3)OCO4)C1=CCC(C)(C)C2
 : -18.5, -32.6, 7.4, i, -0.9
COCC(=O)Nc1ccc2c(c1)[C@H]1C[C@H](CC(=O)NCC3CC3)O[C@H](CO)[C@H]1O2
 : 4.0, 0.4, 1.2, i, -0.4
CC(C)(C)S(=O)N1Cc2cc(C(=O)O)nc(-c3cccc(-c4cc5ccccc5o4)c3)c2[C@@H]1CCO (some centres undefined)
 : -2.6, -3.9, 3.8, i, -3.8
C(=C\c1ccccc1)/CN1CCN(C(CCc2ccccc2)c2nnnn2-c2ccc3c(c2)OCCO3)CC1 (centres undefined)
 : -3.9, -15.8, 13.5, i, 1.2
Cc1ccc(S(=O)(=O)NCC[C@H]2CC[C@@H](NC(=O)c3ccccn3)[C@@H](CO)O2)cc1
 : 3.1, 5.1, -2.2, i, -2.2
CO[C@H]1CN(C)C(=O)c2cc(C#N)ccc2OC[C@H]2O[C@H](CC[C@H]2OC)CCN(C)C(=O)[C@H]1C
 : 2.8, 0.6, -1.5, i, -1.1
C[C@H](CO)N1C[C@H](C)[C@@H](CN(C)Cc2ccccc2F)Oc2cc(C#CCN(C)C)ccc2S1(=O)=O
 : -20.9, -44.8, 30.4, i, 17.3
COc1cccc(CN2[C@@H](CO)[C@@H]3c4ccccc4N(C(=O)c4ccncc4)C[C@@H]32)c1
 : -1.2, 11.3, -2.5, i, 0.6
Cc1ccccc1S(=O)(=O)NCC[C@H]1CC[C@H](NC(=O)Nc2cccc(Cl)c2)[C@@H](CO)O1
 : -13.2, -39.0, -3.1, i, 0.0
Cc1ccc(S(=O)(=O)N(C)C[C@H]2Oc3ccc(NC(=O)c4ccncc4)cc3C(=O)N([C@@H](C)CO)C[C@@H]2C)cc1
 : -6.0, -1.3, 0.0, i, -0.2
CCC(=O)Nc1ccc2c(c1)OC[C@@H](C)N(Cc1ccc(-c3ccccn3)cc1)C[C@@H](C)[C@H](OC)CN(C)C2=O
 : 0.4, -2.8, 2.0, i, 2.5
CC(C)NC(=O)Nc1ccc2c(c1)C(=O)N([C@@H](C)CO)C[C@@H](C)[C@H](CN(C)Cc1ccc(-c3ccccc3)cc1)O2
 : 1.4, -27.4, 6.8, i, 7.3
COc1ccc2c3c(n(C)c2c1)[C@H](CO)N(S(C)(=O)=O)CC31CCN(C(=O)C2CC2)CC1
 : -1.8, -3.8, -2.6, i, 0.8
COc1ccccc1CN(C)C[C@H]1OCc2cn(nn2)CCCC(=O)N([C@H](C)CO)C[C@H]1C
 : -1.6, 1.7, 1.8, i, -1.0
